Mtb H37Rv = Mycobacterium tuberculosis H37Rv growth inhibition, cell based, confirmatory dose response (AID 1949); most inactive calls were filed without a number and no value below 0 was filed; one-dose inhibition, % at 10 µg/mL; IC50 in µg/mL for titrated hits; actives 1.6% (n = 100,000);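 active = confirmed in a dose series; inconclusive = about 50% or more but not retested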;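 also: bacteria grown 7 days with compound before Alamar blue readout; 0% = untreated bacteria and 100% = reference antibiotic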
* = called active by the depositor; i = inactive; ? = inconclusive. A portion of the library; the hit share may differ from the screen's.

SMILES | Mtb H37Rv
COc1cc(Cl)cc(C2NC(=S)NC(c3ccccc3)=C2C(C)=O)c1OC(C)C (centres undefined) | i
Cc1ccc(S(=O)(=O)N(C)c2cc(S(=O)(=O)N3CCCCC3)c(C)cc2C)cc1 | 4%
CC(=O)c1c(C)nc(-c2ccc(Cl)cc2)nc1N | i
S=C(NC1CCCCCC1)NC1CC1 | i
CCC(=O)NC(=S)Nc1ccc(NC(=S)NC(=O)c2ccccc2C)cc1 | i
O=C(COc1ccc(Cl)cc1)N1CCC(N2CCN(Cc3ccccc3)CC2)CC1 | i
COc1ccccc1NC(=O)c1ccc(F)cc1C | i
C=CCNC(=S)NC(=O)c1cc(I)ccc1Cl | i
O=C(c1ccc(I)o1)N1CCN(c2ccc(F)cc2)CC1 | 3%
CC(=O)c1cccc(NC(=O)Nc2ccc(C(=O)N3CCCC3)cc2)c1 | i
Cc1ccccc1-c1nc2ccccc2c(=O)n1C1CCS(=O)(=O)C1 (centres undefined) | i
Cc1ccc(O)c(NC(=O)CCCC(=O)O)c1 | i
Cc1ccc(-n2c(Cc3ccccc3)nnc2SCC(=O)NCc2ccccc2)cc1 | i
COc1ccc(C(=O)C(C)Oc2ccc(C)c(C)c2)cc1 (centres undefined) | 10%
C=CCn1c(SCc2ccccc2Cl)nnc1-c1ccc([N+](=O)[O-])cc1 | i
COc1ccc(CC(=O)NC2CCCCC2C)cc1 (centres undefined) | i
COc1c(S(=O)(=O)n2cnc(C)c2)ccc(Cl)c1Cl | i
CSc1ccc(S(=O)(=O)NCC2CCCO2)cc1 (centres undefined) | i
Cc1ccc(S(=O)(=O)NC(=S)NCc2cccc(Oc3ccccc3)c2)cc1 | i
COc1ccc(NC(=S)N2CCCCC2c2cccnc2)cc1 (centres undefined) | i
Cc1ccc(SCC(=O)Nc2ccc(C(N)=O)cc2)cc1 | 3%
CCNC(=O)c1ccccc1NC(=O)c1ccc(OC)cc1 | 1%
O=C(O)c1ccccc1NS(=O)(=O)c1ccccc1F | i
COc1cc(S(=O)(=O)n2nc(C)cc2C)c(OC)cc1Cl | i
Cc1cc(C)c2c(C)nn(C3CCOC(C)(C)C3)c2n1 (centres undefined) | i
O=C(c1c(F)c(F)c(F)c(F)c1F)N1CCN(Cc2ccccc2)CC1 | i
COc1ccc2oc(=O)c(C(=O)Nc3cccc(C(F)(F)F)c3)cc2c1 | i
CN1CCN(S(=O)(=O)c2ccc(NC(=S)NC(=O)CCc3ccccc3)cc2)CC1 | i
CC(=O)C1=C(C)NC(SCC(=O)Nc2nccs2)=C(C#N)C1c1ccc(Cl)cc1 (centres undefined) | 6%
C=CCOc1c(Br)cc(CNc2ccc(NC(=O)C(C)C)cc2)cc1OCC | 6%
NCCSC1CC(=O)N(Cc2cccs2)C1=O (centres undefined) | i
Cc1cccc(C)c1NC(=O)c1ccccc1I | 48%
Brc1c(OCc2nc(-c3ccccn3)no2)ccc2ccccc12 | 7%
c1ccc(Cc2nn3c(COc4ccccc4)nnc3s2)cc1 | 2%
CCOc1ccc(Br)cc1C(=O)NCCc1c[nH]c2ccccc12 | i
CCN(CC)CC(=O)n1c2c(c3ccccc31)CCCC2 | 2%
CC(=O)c1ccc(NC(=S)Nc2ccc(Cl)cc2F)cc1 | i
CCOC(=O)c1ccc(NC(=S)NNC(=O)CC(c2ccccc2)c2ccccc2)cc1 | i
O=C(c1ccc(NC(=S)NC2CCCCC2)cc1)N1CCOCC1 | i
COC(=O)CN1C(=S)N(c2ccc(F)cc2)C(=O)C1CC(=O)Nc1ccccc1 (centres undefined) | i
COC(=O)c1sc2cc(NC(=S)Nc3ccc4c(c3)OCO4)ccc2c1Cl | 11%
c1ccc(-c2noc(CSc3nnnn3-c3ccccc3)n2)cc1 | i
O=C1Oc2ccc(Cl)cc2C1c1ccccc1 (centres undefined) | i
O=C(COc1ccccc1[N+](=O)[O-])Nc1ccc(Cl)cc1C(F)(F)F | i
COc1ccc(CN2CCN(Cc3c[nH]c4ccccc34)CC2)cc1Br | ?
CS(=O)(=O)N(Cc1ccccc1)c1ccc(C(=O)NCCSc2ccccc2)cc1 | i
COc1ccc(Br)cc1C(=O)Nc1cc([N+](=O)[O-])ccc1C | i
CSc1nnc2sc3ccccc3n12 | i
Cc1ccc(-c2nnn(CC(=O)O)n2)cc1 | 2%
Cc1cc(C)nc(NS(=O)(=O)c2ccc(NS(=O)(=O)c3ccc4ccccc4c3)cc2)n1 | i
COc1ccc(NC(=O)CN(c2cccc(F)c2)S(C)(=O)=O)cc1OC | i
O=C(O)CCC(=O)Nc1ccccc1NC(=O)c1ccc(C(F)(F)F)cc1 | i
N#Cc1c(NC(=O)COc2ccc3oc4c(c3c2)CCCC4)sc2c1CCCC2 | i
O=C(c1ccc(S(=O)(=O)N2CCCC2)cc1)N1CCN(c2ccccn2)CC1 | i
CN1CCN(NC(=O)Cc2ccccc2Cl)CC1 | i
CCc1ccc(OCC(=O)Nc2ccc3oc(-c4ccccc4C)nc3c2)cc1 | i
C=CCOc1ccc(CNc2nccs2)cc1OCC | 47%
COCCNC(=S)Nc1cc(C)ccc1OC(F)F | i
N#Cc1cc(Cc2ccc(N)c(C#N)c2)ccc1N | 2%
COc1cc(OC)c(C(=O)NCCCc2ccccc2)cc1OC | i
The results go on:
SMILES | Mtb H37Rv
COC(=O)c1c(NC(=S)Nc2cc3oc4ccccc4c3cc2OC)sc2c1CCCC2 | i
O=C(CSc1nc(-c2ccccc2)cs1)NCc1ccc2c(c1)OCO2 | i
COc1ccc(NS(=O)(=O)c2cc(C(=O)Nc3ccccc3)ccc2Cl)cc1 | i
Cc1ccc(-c2nn(C)c(=O)c3ccccc23)cc1CNC(=O)COc1ccccc1 | 6%
COc1ccc(OC)c(S(=O)(=O)NCc2ccccc2Cl)c1 | i
O=C(CCN1C(=O)c2ccccc2C1=O)Nc1cccc(F)c1 | i
Cc1ccc(Oc2ccc(-c3nnc(-c4ccccc4)o3)cc2[N+](=O)[O-])cc1C | 7%
CCSc1ccccc1C(=O)NCCCn1ccnc1 | 1%
CS(=O)(=O)N(CC(=O)Nc1ccccc1-c1ccccc1)c1ccccc1Cl | i
Cc1cccc(OCCCC(=O)Nc2ccc(Br)cc2)c1 | i
CCOc1c(Cl)cc(CNc2ncn[nH]2)cc1OC | i
COc1ccc(S(=O)(=O)N(CC(=O)Nc2ccc3ccccc3c2)c2ccccc2)cc1OC | i
CC1CCc2c(sc3ncnc(SCC(=O)Nc4ccccc4F)c23)C1 (centres undefined) | i
CCOc1ccc(N2CCN(CCNC(=S)Nc3cc(C)ccc3Cl)CC2)cc1 | i
CC(C)OCC(O)CN1CCN(c2ccc(F)cc2)CC1 (centres undefined) | i
CN(Cc1ccccc1)S(=O)(=O)c1ccc2c(c1)n(C)c(=O)n2C | 3%
Cc1ccc(C2/C(=C(\O)c3ccccc3)C(=O)C(=O)N2c2nncs2)cc1 (centres undefined) | i
CCN(c1ccccc1)S(=O)(=O)c1ccc(N)cc1 | i
Cc1cc2nc(SCC(N)=O)[nH]c2cc1C | i
CSc1ccc(C2NC(=O)NC(C)=C2C(=O)OCc2ccccc2)cc1 (centres undefined) | i
CCOc1ccc2sc(NS(=O)(=O)c3ccc(OC)c(OC)c3)nc2c1 | i
Cc1ccc(Sc2ccc(/C=C/[N+](=O)[O-])o2)cc1 | i
COc1ccc(-c2cc(C(F)F)n3ncc(C(=O)NCCCN4CCCC4=O)c3n2)cc1 | i
C=CCNCCCCOc1cccc(Br)c1 | i
COc1ccc(-c2cn3c4ccccc4nc3n2CCNC2CCCCC2)cc1 | ?
CC(C)Oc1ccc(NC(=O)CCc2ccccc2)cc1 | i
O=C(Nc1cc(C(F)(F)F)ccc1Cl)c1ccc(COc2ccccc2Cl)o1 | i
Nc1cc(=O)nc(SCC(=O)Nc2cccc(Cl)c2)n1-c1ccccc1 | i
O=C(CCSc1ccccc1)Nc1ccc(I)cc1 | i
COc1ccc(C(=O)Nc2ccc(F)cc2F)cc1 | i
O=C(NNC(=O)C1CC1c1ccccc1)C1CC1c1ccccc1 (centres undefined) | i
COc1ccc(S(=O)(=O)N2CCCN(S(=O)(=O)c3ccc(OC)c(C)c3)CC2)cc1C | i
Fc1ccccc1OCCSc1ncccn1 | i
O=Cc1cccn1Cc1ccc(Cl)cc1Cl | i
CSc1cccc(NC(=O)CN(c2ccccc2F)S(C)(=O)=O)c1 | i
Cc1ccc(-c2ccc(OCC(=O)NCc3ccco3)cc2)cc1 | i
Cc1ccc(S(=O)(=O)N(CC(=O)O)c2ccc(Cl)cc2)cc1 | i
Cc1cccc(-c2noc(-c3cccc(Br)c3)n2)c1 | i
COc1ccc2nc(NS(=O)(=O)c3ccc(F)cc3)sc2c1 | i
O=C1CCCN1CCCNC(=S)Nc1cccc2ccccc12 | i
COC(=O)c1c(NC(=O)C2CC2c2ccccc2)sc2c1CCC(C)C2 (centres undefined) | i
CS(=O)(=O)N1CCC(C(=O)N2CCN(c3cccc(Cl)c3)CC2)CC1 | i
COc1ccc(N2CC(C(=O)NCC(C)C)CC2=O)cc1 (centres undefined) | i
CCOC(=O)c1ccc(NC(=S)NCCSc2ccc(C)cc2)cc1 | i
CCOc1cc(C#N)cc(Cl)c1OCc1ccc(F)cc1 | 3%
COc1ccc(C(C)(C)C)cc1NC(=S)Nc1ccc([N+](=O)[O-])cc1OC | i
Cc1ccc(NC(=O)Cn2cnc3sc(C)c(C)c3c2=O)c(C)c1 | i
O=C(Nc1ccc(S(=O)(=O)NCC2CCCO2)cc1)c1ccco1 (centres undefined) | i
O=C(NCc1cccnc1)Nc1ccc(Br)cc1Cl | i
Cc1cccc(N2C(=O)CC(Sc3ncccc3C(=O)O)C2=O)c1 (centres undefined) | i
CC1CCc2c(sc(NC(=O)C(C(C)C)N3C(=O)c4ccccc4C3=O)c2C(N)=O)C1 (centres undefined) | 0%
C=COCCNC(=O)C(=O)Nc1c(C)cc(C)cc1C | i
COC(=O)C(Cc1ccccc1)NC(=O)c1ccccc1Br (centres undefined) | 6%
COc1cccc(S(=O)(=O)NC2(C(=O)O)CCCCC2)c1 | i
O=S(=O)(Nc1ccncc1)c1ccc(Oc2ccccc2Cl)cc1 | i
CCC(=O)Nc1ccc(S(=O)(=O)Nc2nc(C)cc(C)n2)cc1 | 1%
CC12CN(C(=O)c3ccco3)CC(C)(CN(C(=O)c3ccco3)C1)C2=O | i
C=CCn1c(COc2ccc(OC)cc2)nnc1SCC(=O)Nc1ccc(C)c(Cl)c1 | i
Cc1ccc(N/C(=N/C(N)=S)c2ccccc2)cc1 | i
O=C(CSCc1ccc(Cl)cc1)Nc1cccc(C(=O)Nc2ccccc2C(=O)O)c1 | i
Additional records
SMILES | Mtb H37Rv
CC1(C)Cc2c(sc3nc(=O)n(N)c(N)c23)CO1 | i
Cc1cccc(C)c1N(Cc1ccc(Cl)cc1)S(C)(=O)=O | i
Cn1c(SCC(=O)O)nnc1-c1c[nH]c2ccccc12 | i
CC1=NN(c2ccc(C(=O)O)cc2)C(=O)/C1=C\c1ccc(-c2cc(C)c(C)cc2[N+](=O)[O-])o1 | i
CC(=O)Nc1ccc(S(=O)(=O)N(Cc2ccccc2)c2ccccc2)cc1 | i
Cc1cc(C)n(CC(O)COc2ccc(OCc3ccccc3)cc2)n1 (centres undefined) | 14%
CC(C)NS(=O)(=O)c1ccc(OCC(=O)Nc2ccc3c(c2)OCCO3)cc1 | i
CCOCCCNCc1c(F)cccc1Cl | i
Cc1cccc(C)c1-n1nnnc1SCC(=O)N1CCOCC1 | i
Cc1ccc(-c2nnc(SCC#CCO)o2)cc1 | 44%
COC(=O)NNC(=S)Nc1ccc(C)c(Cl)c1 | i
COc1c(C)cccc1C(=O)Nc1sc2c(c1C#N)CCC(C)C2 (centres undefined) | i
CCc1sc(C(=O)NCCCn2ccnc2)cc1Br | i
COCCSc1ccccc1C(=O)NCc1ccc2c(c1)OCO2 | i
COc1ccc(-c2noc(CCCC(=O)NCCc3ccccc3)n2)cc1OC | i
C=CCc1ccc(OCCNC2CCCC2)c(OC)c1 | i
COc1ccc(S(=O)(=O)Nc2ccccc2C(=O)N2CCOCC2)c(Cl)c1Cl | i
Cc1cccc(OCC(=O)NC(=S)Nc2ccc(Cl)cc2Cl)c1 | i
COc1ccc2oc(C(F)(F)C(F)F)cc(=O)c2c1 | i
CCOc1ccc(NCC(=O)Nc2ccc(C)cc2C)cc1 | i
CC(=O)Nc1nnc(SCC(=O)n2c3c(c4ccccc42)CCCC3)s1 | i

High-throughput results as filed in PubChem.
